# Screening results (PubChem)
# Vaccinia stage: blocks a specific stage of Vaccinia orthopoxvirus infection. Vaccinia-infected cells, mCherry/Venus stage reporter fluorescence; active compounds read low; some inactives read as strong as hits. AID 1053133. activity change (mCherry), % (concentration not given with the values). hit rate 0.01% among 89,000;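 active = mCherry past -33% and 40 or more points under the early reporter, replicates agreeing; inconclusive = past -33% without that gap or agreement; tested in A549 cells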;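 also: scaled between vehicle wells and reference inhibitor wells; 23 nL library stock went into each well; one replicate is shown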
# Vaccinia stage Venus: second read-out of Vaccinia stage, no call of its own (marks repeat the call); activity change (Venus), %; measured here: Venus reporter, other viral stage;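 negative = less Venus signal; first of two replicates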
# Numbers without * were called inactive; ? = inconclusive; / = not tested or not shown. This is a subset, so the mix of outcomes need not match the whole.
# The line under a structure holds: Vaccinia stage, Vaccinia stage Venus
O=C(N[C@@H]1CC[C@H](CC(=O)N2CCN(c3ccccc3)CC2)O[C@H]1CO)c1ccccc1
  -0.2, -7.2
O=C(C[C@@H]1C=C[C@@H](NC(=O)Nc2ccccc2F)[C@H](CO)O1)NCc1ccc(F)cc1
  7.9, -1.6
C/C=C/c1ccc2c(c1)O[C@@H](CN(C)C(=O)NCCC)[C@@H](C)CN([C@H](C)CO)S2(=O)=O
  -11.3, -10.2
C[C@@H]1CN([C@H](C)CO)C(=O)Cc2cc(N(C)C)ccc2O[C@H]1CN(C)Cc1ccc(-c2ccccc2)cc1
  -6.6, -9.3
C/C=C/c1cnc2c(c1)C(=O)N([C@H](C)CO)C[C@H](C)[C@H](CN(C)C(=O)c1cccc(F)c1)O2
  0.7, -3.7
COc1ccc(NC(=O)Nc2ccc3c(c2)C(=O)N([C@@H](C)CO)C[C@@H](C)[C@H](CN(C)CC2CCCCC2)OCCCC[C@@H](C)O3)cc1
  ?, /
O=C(C[C@H]1CC[C@H](NS(=O)(=O)c2ccc(F)cc2)[C@H](CO)O1)N1CCc2ccccc2C1
  2.7, 3.0
Cn1cnc(CCNC(=O)C[C@@H]2CC[C@H]3[C@@H](COC[C@H](O)CN3C(=O)Nc3ccccc3)O2)c1
  4.7, 4.1
CO[C@H](CN(C)Cc1ccc(-c2ccccn2)cc1)[C@H](C)CN(C(=O)Nc1ccc(F)cc1)[C@@H](C)CO
  -1.1, -1.6
CNC[C@H]1Oc2ccc(NC(=O)NC(C)C)cc2C(=O)N([C@@H](C)CO)C[C@@H]1C
  6.1, 3.3
CN(C)CC(=O)N1[C@H](C#N)[C@H](c2ccc(C#CC3CCCCC3)cc2)[C@@H]1CO
  -10.9, -9.7
C[C@H]1CN([C@@H](C)CO)C(=O)c2cc(C3=CCCCC3)cnc2O[C@@H]1CN(C)C(=O)c1cccnc1
  -3.5, -2.0
O=C(NCC[C@H]1CC[C@H](NC(=O)C2CCC2)[C@@H](CO)O1)c1cc(Cl)cc(Cl)c1
  -0.7, 1.8
CC(C)NC(=O)N(C)C[C@H]1Oc2c(NS(=O)(=O)c3ccccc3)cccc2C(=O)N([C@@H](C)CO)C[C@H]1C
  2.8, -4.2
COc1ccccc1C#Cc1ccc([C@@H]2[C@@H](CO)N3CCCCN(C(=O)C4CC4)C[C@@H]23)cc1
  ?, /
C[C@@H]1CN([C@@H](C)CO)C(=O)c2cc(-c3cncnc3)cnc2O[C@@H]1CN(C)Cc1ccc(Oc2ccccc2)cc1
  ?, /
COCC(=O)N(C)C[C@H]1Oc2ncc(C#CC(C)(C)O)cc2C(=O)N([C@H](C)CO)C[C@H]1C
  8.7, 7.6
Cc1noc(C)c1NC(=O)Nc1ccc2c(c1)CC(=O)N([C@H](C)CO)C[C@@H](C)[C@@H](CN(C)Cc1ccncc1)O2
  23.1, 11.5
COc1ccc2c3c(n(C)c2c1)[C@H](CO)NCC31CN(C(=O)Nc2ccc(F)cc2F)C1
  -12.9, -9.9
CS(=O)(=O)Nc1ccc2c(c1)[C@H]1C[C@@H](CC(=O)N3CCc4ccccc4C3)O[C@H](CO)[C@H]1O2
  0.6, 2.4
C[C@@H]1CN([C@H](C)CO)C(=O)c2cc(C#Cc3ccccc3F)cnc2O[C@H]1CN(C)C(=O)c1ccc2c(c1)OCO2
  ?, /
CCCC(=O)Nc1ccc2c(c1)OC[C@H](C)N(Cc1ccc(F)cc1)C[C@H](C)[C@H](OC)CN(C)C2=O
  17.4, 0.8
O=C(C[C@@H]1C=C[C@H](NC(=O)C2CCOCC2)[C@H](CO)O1)Nc1ccc(-c2ccccc2)cc1
  9.7, 8.1
CC=Cc1ccc2n(c1=O)C[C@H]1[C@H](CO)[C@@H](C(=O)NCC)[C@@H]2N1C(=O)c1ccc(F)cc1 (mixture of isomers)
  4.2, 8.3
COc1ccc2c3c(n(C)c2c1)[C@@H](CO)N(C)CC31CN(S(=O)(=O)c2cccs2)C1
  6.1, -3.7
CN1[C@@H]2CN(C(=O)c3ccc(F)cc3)c3ccccc3[C@@H]2[C@@H]1CO
  1.2, 3.9
C[C@@H]1CN([C@H](C)CO)C(=O)c2cc(NC(=O)CCCCCC(=O)Nc3ccccc3N)ccc2O[C@@H]1CN(C)C(=O)Nc1ccc2c(c1)OCO2
  5.9, -4.1
N#C[C@H]1[C@@H](c2ccccc2-c2ccccc2F)[C@H](CO)N1C(=O)C1CCC1
  5.6, 6.2
C[C@@H]1CN([C@@H](C)CO)C(=O)c2cc(NS(=O)(=O)c3cccs3)ccc2O[C@@H](C)CCCCO[C@@H]1CN(C)C(=O)Nc1ccccc1
  -4.2, 0.2
COc1ccc(S(=O)(=O)Nc2ccc3c(c2)C(=O)N([C@@H](C)CO)C[C@@H](C)[C@H](CN(C)C(=O)c2ccccc2)OCCCC[C@H](C)O3)cc1
  -3.1, -3.0
C[C@H](CO)N1C[C@H](C)[C@H](CN(C)Cc2ccccc2)OCCCC[C@H](C)Oc2ccc(NS(=O)(=O)c3ccc(Cl)cc3)cc2C1=O
  ?, /
CN(C)CC#Cc1ccc([C@@H]2[C@@H](CO)N3C(=O)CN(C(=O)c4ccc(F)cc4)C[C@H]23)cc1
  28.6, 8.3
CO[C@@H]1CN(C)C(=O)c2ccc(NS(=O)(=O)c3cccc(F)c3)cc2OC[C@H](C)N(C(=O)Cc2cccnc2)C[C@H]1C
  12.4, 11.5
C[C@H]1CN([C@@H](C)CO)C(=O)c2cccc(NC(=O)C3CC3)c2O[C@H]1CN(C)C(=O)NC1CCCCC1
  16.1, 19.6
C[C@H](NC(=O)C[C@H]1C=C[C@H](NC(=O)CN2CCOCC2)[C@@H](CO)O1)c1ccccc1
  6.0, 12.2
CCNC(=O)C[C@H]1CC[C@@H](NC(=O)NC2CCCCC2)[C@H](CO)O1
  3.8, -0.6
O=C(Nc1ccc(C(F)(F)F)cc1)N[C@@H]1CC[C@H](CCn2cc(C3(O)CCCC3)nn2)O[C@@H]1CO
  -0.4, -11.1
Cc1ccc(S(=O)(=O)Nc2ccc3c(c2)CC(=O)N([C@@H](C)CO)C[C@@H](C)[C@@H](CN(C)S(=O)(=O)c2ccc(C)cc2)O3)cc1
  -23.8, -14.8
C[C@@H]1CN([C@H](C)CO)S(=O)(=O)c2ccc(Br)cc2O[C@H]1CN(C)C(=O)C1CCCCC1
  9.5, -2.8
CCCNC(=O)N1C[C@@H](C)[C@@H](OC)CN(C)C(=O)c2cc(NC(=O)CC)ccc2OC[C@@H]1C
  5.9, 5.8
CCCNC(=O)C[C@@H]1C[C@H]2c3cc(NC(=O)COC)ccc3O[C@H]2[C@H](CO)O1
  0.9, 6.2
C[C@H](CO)N1C[C@H](C)[C@H](CN(C)Cc2ccc(C(F)(F)F)cc2)Oc2ccc(NC(=O)Cn3cnnn3)cc2C1=O
  4.1, 0.9
C[C@@H]1CCCCO[C@H](CN(C)C(=O)CCCN(C)C)[C@@H](C)CN([C@H](C)CO)C(=O)c2cc(NC(=O)Nc3ccccc3)ccc2O1
  5.6, 7.7
CN(C)C(=O)C[C@@H]1C[C@@H]2c3cc(NS(C)(=O)=O)ccc3O[C@@H]2[C@H](CO)O1
  1.9, 1.2
O=C(NCC[C@@H]1CC[C@@H](NC(=O)C2CCOCC2)[C@@H](CO)O1)c1ccc(F)cc1
  9.3, 7.2
C[C@H]1CN([C@@H](C)CO)C(=O)Cc2cc(NC(=O)Cc3ccccc3)ccc2O[C@@H]1CN(C)C(=O)Nc1ccc(F)cc1
  12.7, -3.1
C[C@@H]1CN([C@@H](C)CO)C(=O)c2cc(C#Cc3cccc(F)c3)cnc2O[C@H]1CN(C)C(=O)C1CC1
  -8.6, -7.9
C[C@@H]1CN([C@H](C)CO)C(=O)c2cccc(NC(=O)C3CCCCC3)c2O[C@@H]1CN(C)Cc1ccncc1
  2.0, -0.5
C[C@@H]1CN([C@H](C)CO)C(=O)Cc2cc(NC(=O)Nc3cccc4ccccc34)ccc2O[C@@H]1CN(C)S(=O)(=O)c1ccccc1
  9.8, 4.3
C[C@H](CO)N1C[C@H](C)[C@@H](CN(C)S(=O)(=O)c2ccc(Cl)cc2)Oc2ccc(NC(=O)CCN3CCOCC3)cc2C1=O
  5.8, 9.3
C[C@@H]1CN([C@H](C)CO)C(=O)Cc2cc(NS(=O)(=O)c3cccs3)ccc2O[C@H]1CN(C)S(=O)(=O)c1ccc(Cl)cc1
  26.5, 18.4
C[C@@H](O)C#Cc1ccc([C@@H]2[C@H](CO)N3CCCCN(C(=O)c4ccc5c(c4)OCO5)C[C@@H]23)cc1
  19.4, 6.9
C[C@H](CO)N1C[C@H](C)[C@@H](CN(C)Cc2ccc(C(=O)O)cc2)Oc2ccc(NC(=O)Cc3ccccc3)cc2CC1=O
  16.1, 7.1
COCC(=O)NC[C@H]1[C@H](c2ccc(C3=CCCC3)cc2)[C@@H](CO)N1C(=O)C1CC1
  0.1, -1.1
CCCC#Cc1ccc([C@@H]2[C@H]3CN(C(=O)NCCC)CC(=O)N3[C@H]2CO)cc1
  6.8, 4.2
CCNC(=O)C[C@@H]1C=C[C@H](NS(=O)(=O)c2ccc(C)cc2)[C@H](CO)O1
  3.0, 7.6
C[C@H](CO)N1C[C@H](C)[C@H](CN(C)C)Oc2ccc(NS(=O)(=O)c3ccc(Cl)cc3)cc2C1=O
  -1.0, -1.9
O=S(=O)(N[C@H]1CC[C@H](CCn2cc(C3(O)CCCC3)nn2)O[C@@H]1CO)c1ccccc1
  0.0, 6.0
O=C(CC(F)(F)F)N1C[C@@H]2[C@H](c3ccccc31)[C@H](CO)N2C(=O)C1CC1
  14.6, 10.4
O=C(C[C@H]1C[C@@H]2c3cc(NC(=O)C4CCOCC4)ccc3O[C@@H]2[C@H](CO)O1)NC1CCCCC1
  17.5, 14.8

# In the list so far, 4 contain two or more sulfur atoms:
# The line under a structure holds: Vaccinia stage, Vaccinia stage Venus
COc1ccc2c3c(n(C)c2c1)[C@@H](CO)N(C)CC31CN(S(=O)(=O)c2cccs2)C1
  6.1, -3.7
C[C@@H]1CN([C@@H](C)CO)C(=O)c2cc(NS(=O)(=O)c3cccs3)ccc2O[C@@H](C)CCCCO[C@@H]1CN(C)C(=O)Nc1ccccc1
  -4.2, 0.2
Cc1ccc(S(=O)(=O)Nc2ccc3c(c2)CC(=O)N([C@@H](C)CO)C[C@@H](C)[C@@H](CN(C)S(=O)(=O)c2ccc(C)cc2)O3)cc1
  -23.8, -14.8
C[C@@H]1CN([C@H](C)CO)C(=O)Cc2cc(NS(=O)(=O)c3cccs3)ccc2O[C@H]1CN(C)S(=O)(=O)c1ccc(Cl)cc1
  26.5, 18.4

# (cont.)
# The line under a structure holds: Vaccinia stage, Vaccinia stage Venus
COc1ccc(NC(=O)Nc2ccc3c(c2)CC(=O)N([C@@H](C)CO)C[C@@H](C)[C@@H](CN(C)S(=O)(=O)c2cccs2)O3)cc1
  6.8, -0.5
O=C(CN1CCOCC1)N[C@@H]1CC[C@@H](CCn2cc(C3CCCCC3)nn2)O[C@@H]1CO
  14.5, 5.9
Cc1noc(C)c1S(=O)(=O)Nc1ccc2c(c1)CC(=O)N([C@H](C)CO)C[C@H](C)[C@@H](CN(C)CC1CC1)O2
  -9.1, 5.9
CCS(=O)(=O)Nc1ccc2c(c1)C(=O)N(C)C[C@@H](OC)[C@H](C)CN(C(=O)C1CC1)[C@@H](C)CO2
  7.9, 5.7
C[C@H](NC(=O)[C@H]1N[C@H]2c3ccc(C4=CCCCC4)c(=O)n3C[C@H]2[C@@H]1CO)c1ccccc1
  6.3, 3.6
C[C@@H]1CN([C@@H](C)CO)C(=O)CCCn2cc(nn2)CO[C@H]1CN(C)C(=O)c1ccc2ccn(C)c2c1
  16.5, 17.3
C[C@H]1CN([C@@H](C)CO)C(=O)c2cccc(NS(=O)(=O)c3ccccc3)c2O[C@H]1CN(C)C(=O)Nc1ccc(F)cc1
  9.4, 7.5
O=C(CN1CCOCC1)N[C@H]1CC[C@H](CCNC(=O)C2CCCCC2)O[C@@H]1CO
  8.0, 9.1
CCCC#Cc1ccc([C@H]2[C@@H](CO)N3C(=O)CN(C(=O)Nc4ccccc4F)C[C@H]23)cc1
  20.3, 6.8
COc1ccc2c3c(n(C)c2c1)[C@H](CO)N(C(=O)Nc1ccc(F)cc1)CC31CCN(S(=O)(=O)c2cccs2)CC1
  -23.9, -17.2
CCN1[C@@H]2c3ccc(C4=CCCC4)c(=O)n3C[C@@H]2[C@@H](CO)[C@@H]1C(=O)NCCc1ccccc1
  -6.5, 5.8
C[C@@H]1CN([C@@H](C)CO)C(=O)c2ccccc2-c2ccccc2CO[C@@H]1CN(C)S(=O)(=O)c1ccccc1F
  5.4, -0.6
O=C([C@H]1[C@H](CO)[C@H]2Cn3c(ccc(-c4cccnc4)c3=O)[C@@H]1N2CCC(F)(F)F)N1CCCCC1
  3.4, 0.3
CCC(=O)Nc1ccc2c(c1)C(=O)N(C)C[C@@H](OC)[C@@H](C)CN(C(=O)COC)[C@H](C)CO2
  6.2, 1.8
CCCN1C[C@H](C)[C@H](OC)CN(C)C(=O)c2ccc(NC(=O)c3cccc(OC)c3)cc2OC[C@@H]1C
  4.3, 3.9
CS(=O)(=O)N1CCCCN2[C@H](CO)[C@H](c3ccc(C4=CCCC4)cc3)[C@@H]2C1
  22.6, 8.9
COc1cccc(CNC(=O)C[C@@H]2CC[C@@H]3[C@@H](COc4ccc(NS(=O)(=O)c5ccccc5F)cc4C(=O)N3C)O2)c1
  4.3, 7.3

# In the list so far, 2 contain a cyano group.
# The line under a structure holds: Vaccinia stage, Vaccinia stage Venus
CN(C)CC(=O)N1[C@H](C#N)[C@H](c2ccc(C#CC3CCCCC3)cc2)[C@@H]1CO
  -10.9, -9.7
N#C[C@H]1[C@@H](c2ccccc2-c2ccccc2F)[C@H](CO)N1C(=O)C1CCC1
  5.6, 6.2
